High-throughput results: PubChem, Fisher Drug Discovery Resource Center
NPYLR7 ag: mosquito NPYLR7 agonism; HEK293T NPYLR7/Galpha15, GCaMP6s calcium fluorescence; hit rate 0.15% among 270,000; AID 1259423; activation, % at 10 µM; in the data active = activation above about 40%;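 note: 0% = vehicle and 100% = reference agonist at the receptor; some compounds past the cut are filed as inactive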
NPYLR7 ag max-min: recorded beside NPYLR7 ag, whose call it bears; activation, %; measured here: Max-Min RFU normalised activation; some inactives read as strong as hits;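 span of the calcium signal over five minutes; 0% = vehicle and 100% = native peptide agonist; compound fluorescence can raise it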
The depositor's hits bear a star; & = joins results of further samples. These rows are one share of the data, so the mix of outcomes need not match the whole.

SMILES | NPYLR7 ag | NPYLR7 ag max-min
COc1ccc(NC(=O)C23CC4CC(CC(C4)C2)C3)cc1S(=O)(=O)N1CCOCC1 | -2 | -2
O=C(O)c1cc(-n2cccc2)ccn1 | -3 | 5
CC(Oc1cccc(F)c1)C(=O)NCCCn1nc(-c2ccccc2)ccc1=O (stereo not drawn) | -2 | -4
O=[N+]([O-])c1cc(S(=O)(=O)N2CCCCCC2)ccc1Nc1ccc2c(c1)OCO2 | -1 | 6
Cc1cc(C)c(CNCc2noc(-c3ccco3)n2)c(C)c1CO | 8 | 8
COCCN(Cc1nc(C(=O)O)cs1)C(=O)Nc1ccc(C(C)C)cc1 | -7 | -13
S=c1nc[nH]c2[nH]ncc12 | -5 | -13
O=C(NCC(c1ccccc1)c1ccccc1)c1cn(CC2CCCO2)nn1 (stereo not drawn) | 2 | -1
CC(C)N(Cc1ccccc1)C(=O)COC(=O)c1c(F)cccc1F | 1 | -1
Cn1cnnc1CNC(=O)C1CCCN(S(=O)(=O)c2ccc(Br)s2)C1 (stereo not drawn) | 2 | 1
CCOc1ccc2nc(N3CCCC(C(=O)N4CCC(C(=O)N5CCOCC5)CC4)C3)nc(C)c2c1 (stereo not drawn) | 0 | -2
O=C(C1CC=CCC1)N1CCN(C2CCCC2)CC1 (stereo not drawn) | 1 | 0
COc1ccccc1OCCCOc1cccc(C(F)(F)F)c1 | 0 | 15
Cc1ccc2nc(CCCNC(=O)CN3CCCN(C)CC3)oc2c1 | 6 | 4
CCN(CC)S(=O)(=O)c1ccc(NN=C2CC(C)CC(C)(C)C2)nc1 (stereo not drawn) | 4 | 2
CCn1c(C)cc(O)c(C(c2cccnc2)N2CCC(Cc3ccccc3)CC2)c1=O (stereo not drawn) | 4 | 0
CCCCN1C(=O)CC(N2CCOCC2)C1=O (stereo not drawn) | -7 | -11
O=C(CCl)NC(Cc1ccccc1)c1nnc(SCc2ccccc2)n1-c1ccc(Cl)cc1Cl (stereo not drawn) | -4 | -3
COc1cccc2c1OCC(NC(=O)N(C)Cc1ccncc1)C2 (stereo not drawn) | 3 | -1
CC(C)(CO)Cc1cc(C(C)(C)C)c(O)c(C(C)(C)C)c1 | 1 | -2
COc1ccc(S(=O)(=O)NCCCN2CCOCC2)cc1N1CCN(S(=O)(=O)c2ccc(F)cc2F)CC1 | 6 | 3
O=C(CN1CCN(c2ccccn2)CC1)N(Cc1ccccc1F)C1CC1 | 2 | -1
Cc1cccc(COC(CN2CCN(C(=O)c3cccn3C)CC2)c2ccc(Cl)cc2)c1 (stereo not drawn) | 29 | 15
Cc1ccc(N2C(=O)CSC2c2ccccc2NC(=O)COCc2ccccc2)c(C)c1 (stereo not drawn) | 0 | 2
CN(C)c1ccc(S(=O)(=O)N2CCCCC2)cc1NC(=S)NC1CCCCC1 | 1 | -2

(cont.)
SMILES | NPYLR7 ag | NPYLR7 ag max-min
COc1ccc(-c2cc(COC(=O)c3ccco3)no2)cc1OC | 3 | 1
CC(C)(C)N=c1scc(-c2ccccc2)n1-c1ccccc1 | -14 | -17
O=C(NC1CCCc2c1cnn2-c1ccccc1F)c1ccc2[nH]ccc2c1 (stereo not drawn) | 2 | -6
CCN(CC)S(=O)(=O)c1ccc2c(c1)nc(SCc1cccc(C(=O)O)c1)n2Cc1ccco1 | 11 | 4
CC(=O)CC1(O)C(=O)N(Cc2ccccc2)c2ccc(Br)cc21 (stereo not drawn) | 13 | 17
CCOC(=O)c1ccc2c(c1)nc(SCc1ccc(C(=O)OC)cc1OC)n2CCc1ccc(OC)cc1 | 3 | -3
O=[N+]([O-])c1ccc2[nH]c(O)c(N=NC3CCS(=O)(=O)C3)c2c1 (stereo not drawn) | -2 | -5
CCCCc1ccc(C(=O)NC(C(=O)Nc2nnc(-c3ccc(OC)cc3)s2)C(C)C)cc1 (stereo not drawn) | 2 | 10
CCOc1ccc(-c2onc(C)c2-c2ccccc2OC)c(O)c1 | -1 | -5
COC(=O)c1ccc(CSc2nc3c(c(=O)n2-c2ccc(Br)cc2)SCC3)o1 | 1 | 43
O=C(c1ccc(Cl)c(N2CCCC2=O)c1)N1CCN(Cc2ccc(Cl)s2)CC1 | 0 | -5
COc1ccc(C2=Nn3c(C)nnc3SC2)cc1 | -1 | -3
Cc1cc(C(=O)N=Nc2c(O)n(C)c3ccccc23)n[nH]1 | -2 | -7
Cn1c(=O)[nH]c2ncc([N+](=O)[O-])cc2c1=O | 6 | 1
O=C(NCc1ccccc1Cl)c1cc(S(=O)(=O)NC2CC2)c(Cl)cc1Cl | 3 | 2
CCOc1ccc(-c2nccn2CCN(C)C)cc1CO | 1 | -1
O=C(C1CCN(CC(O)c2ccccc2)CC1)N1CCc2ccccc2C1 (stereo not drawn) | 12 | 4
COc1ccccc1/C=C/CN1CCC(n2cc(CO)nn2)CC1 | 1 | 2
COc1ccc(-c2cc3c(=O)n(CC(=O)Nc4ccc(C)cc4Br)ccn3n2)cc1 | -1 | -6
O=C(C1CCN(C2CCN(Cc3ccc4c(c3)CCO4)CC2)CC1)N1CCCC1 | 4 | 7
COC(=O)C1=C(NC(=O)c2ccc(-c3ccccc3)cc2)CCS1 | -1 | -3
S=c1[nH]nc(-c2cccnc2)n1C1CC1 | 1 | -2
Cc1nn(C)c(Cl)c1C1CCCN1CC(O)c1cccc(F)c1 (stereo not drawn) | 10 | 4
O=C(NCC1Cc2ccccc2O1)c1ccc(N2CCCCCC2)nc1 (stereo not drawn) | 8 | 9
CCOc1cc(/C=N\Nc2ncnc3nc[nH]c23)ccc1O | -1 | -4

Next structures.
SMILES | NPYLR7 ag | NPYLR7 ag max-min
COc1cccc(Cc2nsc(N(CCC(=O)N3CCC(n4c(=O)[nH]c5ccccc54)CC3)C(C)C)n2)c1 | -4 | -9
CCCC(=O)N1CCC1(C)C(=O)Nc1ccccc1-c1ccccc1 (stereo not drawn) | -2 | -3
O=C(Cc1ccccc1)NN1C(=O)C2C3C=CC(C4CC34)C2C1=O (stereo not drawn) | 2 | 1
CCC1=NS(=O)(=O)c2cc(NC(=O)COC)ccc2N1CC1CCCO1 (stereo not drawn) | 21 | 8
Cc1ncoc1C(=O)N1CCC(CCC(=O)NC2CCN(Cc3ccccc3)C2)CC1 (stereo not drawn) | 23 | 11
Cc1ccc(-c2nc(CN3N=NC4C(=O)N(c5ccc(F)cc5)C(=O)C43)c(C)o2)cc1 (stereo not drawn) | 2 | -8
CCOC(=O)C(Cc1ccc(Cl)cc1)NC(=O)c1cccnc1NC(C)C (stereo not drawn) | -8 | -8
CCc1ccc(/C(=C2/OC(=O)c3ccccc32)[N+](=O)[O-])cc1 | -10 | -18
CCCCn1c(N2CCN(Cc3ccc(Cl)cc3)CC2)nc2c1c(=O)[nH]c(=O)n2C | -11 | -11
COc1ccc2c([N+](=O)[O-])c(N3CCOCC3)[nH]c2c1 | 3 | 4
Cc1ccc(C)c(C(C)NCc2ccn(C)c(=O)c2)c1 (stereo not drawn) | -1 | 0
Cc1nc(C(C)(C)C)sc1C(=O)Nc1cnc(C(C)(C)C)nc1 | 0 | 2
COCc1nc(NCc2cnc(C)cn2)c2cnn(C)c2n1 | 18 | 14
Cc1ccc2sc(N(CCN(C)C)C(=O)c3ccc([N+](=O)[O-])cc3)nc2c1C | -1 | -2
COCCSc1nnc(C)c2cnn(-c3ccccc3)c12 | -9 | -12
Cc1cccc(C)c1-n1nnnc1SC(C)C(=O)NC(=O)NC1CCCCC1 (stereo not drawn) | 1 | 4
C(=C\c1ccccc1)/CN1CCN(c2ccc3cc[nH]c3n2)CC1 | 3 | 1
c1ccc2[nH]c(Cc3nn[nH]n3)nc2c1 | 7 | 6
COc1cccc(C(=O)NNc2cc(=O)n(C)c(=O)n2C)c1 | 3 | 3
COc1ccc(C2=NC(=Cc3ccc(OC(F)F)c(OC)c3)C(=O)O2)cc1 | -11 | -14
Cc1nc(SCC(=O)N2CCNC2=O)c2c(C)c(C)sc2n1 | 4 | 2
CCCCCCCCCCC/C=C\C(C)(C)/C=C\CCCC(=O)O | -2 | -17
CCSc1ncc(CN2CC[C@@H](c3ccc(F)cc3)[C@H](O)C2)cn1 | 5 | 3
Cc1ccc(O)c(NC(=O)c2cc3nc(-c4ccc(F)cc4)cc(C(F)(F)F)n3n2)c1 | -16 | -22
Cn1nc(NC(=O)Cc2ccccc2Cl)c2c1NC(=O)CC2c1ccco1 (stereo not drawn) | -12 | -21

The list continues.
SMILES | NPYLR7 ag | NPYLR7 ag max-min
O=C(O)[C@H]1C[C@@H](C(=O)N2CCCC2)CN(C(=O)CCCCc2ccccc2)C1 | 12 | -1
O=C(c1cccs1)C1CCCN(Cc2nc(-c3ccc4c(c3)OCO4)no2)C1 (stereo not drawn) | -11&-8 | -13&-11
COC(=O)C1=C(C)N(C)C(C)=C(C(=O)OC)C1c1ccccn1 | -3 | -2
CC(C)c1ncc(C(=O)N2CCC3(CCCN(C)C3=O)C2)c(=O)[nH]1 (stereo not drawn) | -4 | -6
COc1ccc(-c2noc(CNC(=O)c3cc4cccc(OC)c4o3)n2)cc1 | 12 | 6
O=C(CNC(=O)c1cccc(F)c1)N=Nc1c(O)n(CCc2ccccc2)c2ccccc12 | -9 | -10
CNC(=S)Nc1ccc(-n2cnc3ccccc32)cc1 | -2 | 0
Cc1ccc(S(=O)(=O)N2CCC(C(=O)N(C)Cc3ccc4c(c3)OCCO4)CC2)cc1C | 9 | 13
CCCOC1CCCN(C(=O)Cc2ccccc2)C1 (stereo not drawn) | -6 | 0
CCN(CC)S(=O)(=O)c1cc(C(=O)Nc2ccc(C(C)=O)cc2)ccc1C | -19 | -22
Cn1c(=O)[nH]c(=O)c2c1nc(N1CCN(Cc3cccc(Cl)c3)CC1)n2CCCc1ccccc1 | 13 | 8
Cc1nccn1-c1ccc(CNC(=O)C2CCC(=O)N(Cc3ccccc3F)C2)cc1 (stereo not drawn) | 12 | 7
Cc1oc2c(F)c(F)c(F)c(F)c2c1C(=O)O | -8 | -6
NNc1nc(Nc2ccccc2)nc(N2CCOCC2)n1 | -6 | -8
Cc1ccc(/C=C/S(=O)(=O)NC(C)c2sc(C)nc2C)cc1 (stereo not drawn) | 2 | -1
CCCCOc1ccc(S(=O)(=O)NCCOc2ccc(-c3ccc(OC)cc3)nn2)cc1 | 1 | -1
CC(C)c1ccc(CN2CCCC(O)(CNCc3ccc[nH]c3=O)C2=O)cc1 (stereo not drawn) | 7 | 5
CCOC(=O)CCNC(=O)C1CCCN1C(=O)C1CCCCC1 (stereo not drawn) | 17 | 7
Cc1ccccc1Cn1ccnc1CN(C(=O)c1cccc(F)c1)C(C)C | 5 | 8
CC(=O)OC12CC3CC(C1)CC(C(=O)NCC1CCCN(C)C1)(C3)C2 (stereo not drawn) | -2 | -6
CC(=O)Nc1ccccc1NC(=O)CN1C[C@]2(C)C[C@H]1CC(C)(C)C2 | 9 | 8
COc1ccc(C(=O)N(Cc2cccnc2)Cc2nccn2Cc2ccc(C(F)(F)F)cc2)cc1 | 19 | 24
CC(=O)Nc1ccc(-n2c(CCC(=O)NCc3ccccn3)ccc2-c2ccc(F)cc2)cc1 | 4 | -1
CCNC(=O)N1CCC(NC(=O)c2ccnc(C(C)C)n2)CC1 | 15 | 7
CC(C)c1cccc(C(C)C)c1NC(=O)N(Cc1ccc(OS(=O)(=O)c2cccc(C(F)(F)F)c2)cc1)C(C)C | -4 | -7

(continued)
SMILES | NPYLR7 ag | NPYLR7 ag max-min
CCOC(=O)c1cn[nH]c1S(=O)(=O)Nc1cccc2c1CCCC2 | 4 | 2
CC1CCCN(C(=O)c2cncn2-c2ccc(-c3cc4ccccc4o3)cc2)C1 (stereo not drawn) | -1 | 5
Cc1c(C)c(C(=O)N2CCCC2)n(Cc2cccc(C(F)(F)F)c2)c1C | 11 | 8
O=C(CC(c1cccc2c1OCO2)c1c[nH]c2ccccc12)NCc1ccc(F)cc1 (stereo not drawn) | 21 | 33
CC(C)Cn1c(CN2CCC(C)CC2)nc2c1c(=O)n(C)c(=O)n2C | 0 | -2
Cc1ccc(-n2c(-c3ccc(Cl)cc3)c[n+]3c2CCCCC3)cc1 | 0 | 74
Cn1cc(CN2CCCC(CO)(Cc3cccc(Cl)c3)C2)cn1 (stereo not drawn) | -1 | 1
CSc1nnc2c(n1)OC(c1ccc(OC(=O)c3ccc(Br)cc3)cc1)Nc1ccccc1-2 (stereo not drawn) | 46* | 78*
CC(C)CN1C(=O)C(=Cc2c(N3CCN(CCO)CC3)nc3ccccn3c2=O)SC1=S | 79* | 68*
CC(C)(C)c1ccc(OCCNC(=O)Cn2c(-c3cccs3)n[nH]c2=S)cc1 | 0 | 14
CCn1ccnc1CNc1nc2nonc2nc1N1CCCC1 | -6 | -9

Of the compounds above, these contain a Cl atom.
SMILES | NPYLR7 ag | NPYLR7 ag max-min
O=C(CCl)NC(Cc1ccccc1)c1nnc(SCc2ccccc2)n1-c1ccc(Cl)cc1Cl (stereo not drawn) | -4 | -3
Cc1cccc(COC(CN2CCN(C(=O)c3cccn3C)CC2)c2ccc(Cl)cc2)c1 (stereo not drawn) | 29 | 15
O=C(c1ccc(Cl)c(N2CCCC2=O)c1)N1CCN(Cc2ccc(Cl)s2)CC1 | 0 | -5
O=C(NCc1ccccc1Cl)c1cc(S(=O)(=O)NC2CC2)c(Cl)cc1Cl | 3 | 2
Cc1nn(C)c(Cl)c1C1CCCN1CC(O)c1cccc(F)c1 (stereo not drawn) | 10 | 4
CCOC(=O)C(Cc1ccc(Cl)cc1)NC(=O)c1cccnc1NC(C)C (stereo not drawn) | -8 | -8
CCCCn1c(N2CCN(Cc3ccc(Cl)cc3)CC2)nc2c1c(=O)[nH]c(=O)n2C | -11 | -11
Cn1nc(NC(=O)Cc2ccccc2Cl)c2c1NC(=O)CC2c1ccco1 (stereo not drawn) | -12 | -21
Cn1c(=O)[nH]c(=O)c2c1nc(N1CCN(Cc3cccc(Cl)c3)CC1)n2CCCc1ccccc1 | 13 | 8
Cc1ccc(-n2c(-c3ccc(Cl)cc3)c[n+]3c2CCCCC3)cc1 | 0 | 74
Cn1cc(CN2CCCC(CO)(Cc3cccc(Cl)c3)C2)cn1 (stereo not drawn) | -1 | 1
